Assay outcomes (PubChem)
NPYLR7 agonist = activates Aedes aegypti NPYLR7 receptor | HEK293T NPYLR7/Galpha15, GCaMP6s calcium fluorescence | activation, % at 10 µM | 0.15% of 270,000 active; in the data active = activation above about 40%;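 also: 0% = vehicle and 100% = reference agonist at the receptor; some compounds past the cut are filed as inactive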
NPYLR7 agonist max-min = also measured in NPYLR7 agonist; calls as there; activation, %; measured here: Max-Min RFU normalised activation; some inactives read as strong as hits;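 span of the calcium signal over five minutes; 0% = vehicle and 100% = native peptide agonist; compound fluorescence can raise it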
Numbers without * were called inactive; & = joins results of further samples. These rows are one share of the data. The share of hits here may be higher or lower than overall.

Structure	NPYLR7 agonist	NPYLR7 agonist max-min
Cc1ccc(Cn2c(N3CCOCC3)nc3cc(C(=O)NCC(C)c4ccccc4)ccc3c2=O)cc1 (stereo not drawn)	18.1	17.9
OCCN(CC1CCN(C2CCCC2)CC1)CC1CCCO1 (stereo not drawn)	2.8	-2.0
Oc1cc2ccccc2cc1-n1cnnc1	15.2	3.4
Cc1c(NC(=O)c2ccco2)cccc1C(=O)NC(C)c1cccs1 (stereo not drawn)	-3.8	-8.1
Cc1ccsc1[C@@H]1CCN(C(=O)c2cnc3ccccc3c2)C[C@H]1O	9.2	5.3
O=C(C1CCCCC1)N1CCN(c2cc(Oc3ccc(F)cc3Cl)ncn2)CC1	2.1	1.7
CCc1nnc(NC(=O)C(=O)N(C)C2Cc3ccccc3C2)s1	6.5	4.8
COc1ccc(CCN2CC(NC(=O)c3sccc3C)CC2=O)cc1 (stereo not drawn)	1.8	-3.1
Cc1noc(C)c1S(=O)(=O)N1CCN(CN2C(=O)CC3(CCCC3)C2=O)CC1	8.9	10.6
CC(C)(C)c1cc(C(F)(F)F)c2c(N)c(C(=O)NC3CC3)sc2n1	0.6	-2.4
Cc1ccc2[nH]c(O)c(N=NC(=O)c3ccc(O)cc3)c2c1Br	-2.8	-10.2
COc1cccc(CN(CC(C)C)C(=O)c2nn(C)cc2Cl)c1	3.4	4.1
Cc1cccc(NCCNC(=O)c2oc(Br)cc2C)n1	-4.9	-12.3
CC(C)NC(=O)c1csc(COc2cccc(F)c2)n1	-3.8	-14.8
O=C(COc1ccccc1)NCc1ccc(N2CCCC2=O)cc1	17.5	9.7
Cc1nc2ccccc2n1CCCNc1nncc(N)c1Cl	6.5	4.9
Cc1cnc2c(c1NCCN(C)C)c(=O)n(C)c(=O)n2C	-3.5	-3.6
Cc1cccc(OCC(=O)Nc2cc(-c3cccs3)nn2-c2nc(C)c(C)c(=O)[nH]2)c1	1.8	1.4
O=C1NCC2(CCCN(C(=O)c3cnc4ccccc4c3)CC2)O1 (stereo not drawn)	6.1	4.1
CSc1ccccc1C(=O)Oc1coc(CSc2nccn2C)cc1=O	-2.3	-6.5
COCCN1CCCN(C(=O)C(C)(C)c2cccc(C#N)c2)CC1	2.6	6.7
Cc1cc(C(=O)N2CCOC(c3ccc(F)cc3)C2)n[nH]1 (stereo not drawn)	-4.9	-6.5
CCCN(CCC)C(=O)Cn1nc(CC)n2c(cc3sc(C)cc32)c1=O	7.9	9.1
CCCc1ncc(CN2CCCC(C(=O)Nc3ccc(-c4cccc(OC)c4)cc3)C2)cn1 (stereo not drawn)	15.0&3.8	5.7&-1.2
CCc1[nH]nc(N)c1-c1ccc(OC)c(OC)c1	-0.8	-6.0
CC(Cc1cnccn1)NC(=O)CC1c2ccccc2CCc2ccccc21 (stereo not drawn)	3.3	1.8
O=C(CSc1cn(CCNC(=O)c2cccs2)c2ccccc12)NC1CCCC1	4.0	2.0
COc1ccc(Oc2cc(N(C)CCc3ccc(OC)c(OC)c3)ncn2)cc1	5.3	2.4
COc1ccc(/C=C2/SC(=Nc3ccccc3)NC2=O)c(OC)c1	4.5	1.6
O=C(c1cscn1)N(CCC(F)(F)F)C1CCCCC1	7.3	709.5

(listing goes on)
Structure	NPYLR7 agonist	NPYLR7 agonist max-min
CN1CCN(CCCN(C)C(=O)c2nnn(-c3ccccc3)c2C2CC2)CC1	15.4	12.3
Cc1c(C(=O)NCc2ccc3c(c2)OCO3)cnc2c(-c3c(F)cccc3Cl)cnn12	16.5	10.8
COc1c(C)cnc(CNS(=O)(=O)N2CCCCC2C)c1C (stereo not drawn)	7.3	4.7
O=S(=O)(NCCN1CCOCC1)c1ccc2c(c1)CCC2	3.1	2.2
CCOCCOc1nc(-c2ccc(OC)cc2)n(-c2ccc(NCC(O)COCc3ccccc3)cc2)n1 (stereo not drawn)	-3.0	4.3
COCCNc1nc(NCCN2CCNC2=O)c2sc(-c3ccccc3)cc2n1	-4.0	-3.9
CC(C)(C)c1ccnc2nc(N3CCN(C(=O)C(Cl)Cl)CC3)nn12	6.7	3.5
CCNc1cc(C)nc(N2CCN(C(=O)CCc3ccccc3)CC2)n1	9.9	5.0
CCCNC(=O)CSC1=NS(=O)(=O)c2ccccc2N1	-5.5	-12.0
O=C(O)CCC(CNS(=O)(=O)c1ccc(Cl)s1)C(F)(F)F (stereo not drawn)	5.9	5.3
CCc1ccc(NC(=O)Nc2ccc(N(C)C)c(C(=O)NCc3ccccc3)c2)cc1	35.1	32.1
O=C1CCC(c2ccc(-n3ccnc3)cc2)=NN1	-6.1	2.4
CCOc1ccccc1N1CCN(C(=O)c2cc(-c3ccccc3OC)nc3cc(-c4ccccc4)nn23)CC1	21.0&-8.7	30.3&-9.6
CCONC(=O)CS(=O)(=O)Cc1ccc(Br)cc1F	13.3	11.6
CCn1cc(NC(=O)NCCCOC(C)C)c2ccccc21	5.0	2.9
CN(Cc1ccco1)c1nc(-c2ccccc2F)nc2ccccc12	-0.3	8.1
CCCc1nc(N2CCCN(C(=O)C(C)(C)CCl)CC2)c2c(C)nn(-c3ccc(F)cc3)c2n1	-7.1	-1.6
CN(CC1CCOCC1)C(=O)CC1C(=O)NCCN1Cc1cccc(Oc2ccccc2)c1 (stereo not drawn)	-1.3	-0.3
Cc1ccc(OCC2CCCN(C(=O)c3ccc(-n4cnnc4)cc3)C2)cc1 (stereo not drawn)	12.6	10.5
CC1=C(C(N)=O)C(c2ccc(Cl)cc2)n2nc(CCCO)nc2N1 (stereo not drawn)	8.9	4.7
O=C(CN1CN(c2ccccc2)C2(CCN(C(=O)COc3ccccc3)CC2)C1=O)NCc1ccco1	-8.7	-7.0
CSCCNC(=O)c1c(C)noc1-c1ccccc1C	28.2	11.2
CC(=O)Nc1ccc(NS(=O)(=O)c2cn(C)c(=O)n(C)c2=O)cc1	0.6	-2.1
Cc1ccc(-n2nc(C(=O)NCC(C)C)c(=O)n(Cc3ccccc3C)c2=O)cc1C	-0.5	4.4
COc1cc(-c2nn(-c3cccc(F)c3)c(OC(C)=O)c2-c2ccc(NC(=O)c3cccs3)cc2)cc(OC)c1OC	0.8	5.1
COCCCN(CC(=O)N(CCc1c[nH]c2ccccc12)Cc1ccc(C(F)(F)F)cc1)C(=O)c1cccc(Br)c1	-10.0	-12.2
CCOC(=O)CN(C(=O)c1ccc(CC)s1)C(C)C	2.8	2.6
COCCOC(=O)N(Cc1ccccc1)[C@@H]1C[C@@H]2CO[C@H](c3ccccc3)C[C@@H]2C1	18.0	24.3
CSc1ccc2c(C)cc(NCCNC(C)=O)nc2c1	-1.2	-4.4
C/C=C/c1c(F)c(F)c(Oc2ccccc2C=O)c(F)c1F	-3.4	-3.1

Next part.
Structure	NPYLR7 agonist	NPYLR7 agonist max-min
CC1CCc2[nH]c3ccc(C(=O)N4CCNC(=O)C4)cc3c2C1 (stereo not drawn)	3.8	1.9
CCCCc1ccc(C(=O)Nc2ccc(N3CCc4ccccc4C3)c(C(=O)N3CCCC3)c2)cc1	1.2	16.8
COC(=O)c1ccc(C2NN(C)C3C(=O)NC(=O)C23)cc1 (stereo not drawn)	-0.7	-2.7
CC(c1ccccc1)N1CCC(NCC2(c3ccccc3)CCOCC2)C1 (stereo not drawn)	0.9	-1.4
CC(Cc1ccc(Cl)cc1)NC(=O)c1nccnc1N (stereo not drawn)	15.3&5.4	7.7&3.5
COc1ccc(Cn2c(-c3cc(C(F)(F)F)ccc3F)nc3ccccc3c2=O)c(OC)c1	-0.7	-2.8
CC1CN(CCC(=O)NC(c2ccccn2)C(F)(F)F)Cc2cc(Cl)ccc2O1 (stereo not drawn)	5.7	1.1
CN1C(=O)C(CC(=O)NCCn2cncn2)(Cc2ccccc2)c2ccccc21 (stereo not drawn)	5.7	-0.8
O=C(N=Nc1c(O)[nH]c2ccccc12)c1cc(C23CC4CC(CC(C4)C2)C3)[nH]n1	9.5	8.6
Cc1ccc(C)c(Cn2cnc3c(cnn3C3CCS(=O)(=O)C3)c2=O)c1 (stereo not drawn)	8.2	-0.5
COCc1cc(N2CCN(C/C=C/c3ccccc3)CC2)nc(SCc2cccc(C(=O)N3CCCC3)c2)n1	5.3	8.4
CCOC(=O)c1cnc(-c2ccc(OC)c(OC)c2)nc1N1CCSCC1	17.5	18.7
Cc1nc(N)nc(C)c1CC(=O)N1CCOC(C(F)(F)F)C1 (stereo not drawn)	2.1	6.5
Cc1ccc(C(=O)NC(C)c2cnn(-c3cccc(C(F)(F)F)c3)c2C)cn1 (stereo not drawn)	-1.8	-2.8
COc1ccc(/C=C2\C=C(c3ccccc3)N(c3ccc(Nc4ccccc4)cc3)C2=O)cc1	-1.9	3.8
COc1cccc(Cc2nsc(Oc3cc(C(=O)N4CCN(c5cccc(Cl)c5)CC4)ccc3C)n2)c1	-5.2	1.2
CN(C1CCCCC1)S(=O)(=O)N1CCCC(C(=O)O)C1 (stereo not drawn)	2.2	2.9
NC(=O)Cn1c(CSc2nnc(C3CC3)n2C2CC2)nc2ccccc2c1=O	1.0	0.0
O=C(Nc1ccccn1)c1cccc(S(=O)(=O)N2CCOCC2)c1	-11.3	-20.5
COC(=O)CN1C(=O)C2C3CCC(C3)C2C1=O (stereo not drawn)	8.0	3.5
O=C(c1ccco1)N1N=C(c2ccc(Cl)cc2)CC1c1ccco1 (stereo not drawn)	5.9	10.0
Cc1ccc2scc(N3CCCCCC3)c(=O)c2c1	2.1	-0.7
CC(=O)c1ccc(S(=O)(=O)NCc2cccnc2)cc1	-9.1	-0.7
COc1ccccc1C(C)NC(=O)[C@@H]1Cc2ccccc2N1C(C)=O (stereo partly drawn)	6.9	3.0
CC(OC(=O)c1ccccc1C(=O)N(C)c1ccccc1)C(N)=O (stereo not drawn)	7.2	5.1
O=C(NCCc1cccc(Cl)c1)c1cc2c(s1)-c1ccccc1OC2	4.1	1.8
COc1cccc(-c2ccc(NC(=O)C3CCCN3C(=O)c3ccco3)cc2)c1 (stereo not drawn)	-2.8	-6.5
CCOc1ccc2ccccc2c1C(=O)N1CCC(c2ccc(F)cc2)CC1	0.9	-4.7
CC(=O)Nc1ccc(-c2nnc3ccc(-c4cncc5ccccc45)cn23)cc1	7.2	-5.8
CC(Sc1nc(N)nc(N)n1)C(=O)NC1(C#N)CCCCC1 (stereo not drawn)	-3.0	-7.8

(more compounds)
Structure	NPYLR7 agonist	NPYLR7 agonist max-min
COc1ccc(C)c2sc(NC(=O)c3ccccc3SC)nc12	2.4	-0.3
CN(C)C(=O)c1nnc2n1CCN(Cc1cccc(O)c1)C2	1.1	1.6
COC(=O)c1cc(C(=O)OC)cc(S(=O)(=O)Nc2ccc(Br)cc2C)c1	20.2	22.5
Cc1ccc(F)cc1-n1c(C2CC2)n[nH]c1=O	1.5	1.1
N#Cc1ccccc1N=Cc1nc(-c2cccc3ccccc23)oc1O	-2.5	-7.9
O=C(Cn1cncn1)NC1(c2ccc(Cl)cc2)CCC1	3.6	-0.5
COc1cccc(NC(=O)N2CCSC2c2cccc(Oc3ccccc3)c2)c1 (stereo not drawn)	-4.4	-1.2
Cc1nc(C2CCCCN2c2cc(C(C)C)nc3ncnn23)no1 (stereo not drawn)	5.1	3.4
Cn1cc(C(CC(=O)N2CCN(C(c3ccccc3)c3ccccc3)CC2)c2cccc(C(F)(F)F)c2)c2ccccc21 (stereo not drawn)	-0.7	6.3
C=CCN(Cc1nccn1Cc1c(C)cc(C)cc1C)S(=O)(=O)c1ccc(C)cc1	-0.8	-1.6
COCCN(Cc1nc(C(=O)N2CCN(c3ccc(OC)cc3)CC2)cs1)C(=O)Nc1c(C)cccc1C	20.2	19.8
COc1cccc(C2C(=C(O)c3ccc(C)cc3)C(=O)C(=O)N2CCCN2CCOCC2)c1 (stereo not drawn)	0.5	-0.4
CCN(C(=O)NC(C)c1csc(C)n1)C1CCCCC1 (stereo not drawn)	11.8	8.4
Cc1cccc(C2(C(=O)N3CCN(S(=O)(=O)c4ccccc4C#N)CC3)CCC2)c1	3.1	-0.7
COc1cc(-c2cc(C(=O)NCCSCc3c(Cl)cccc3Cl)c3ccccc3n2)cc(OC)c1OC	23.9	12.8
CCOc1ncccc1C(=O)N1[C@@H]2CC[C@H]1CNC(=O)C2	16.7	8.9
Cc1cccc(/C(C#N)=C\c2cccn2C)c1	6.6	4.2
COc1ccc(C)cc1NCCN1C(=O)CNC1=O	-1.5	-2.8
c1ccc(CN2CCC(NC3CCCN(c4nc5ccccc5s4)C3)CC2)nc1 (stereo not drawn)	-0.2	-4.5
CCOC(=O)C1CCN(C(=O)c2ccc(CSc3nc(CC)cc(N(C)C)n3)cc2)CC1	1.4	4.3

3 entries picked at random from those above, as already listed:
Structure	NPYLR7 agonist	NPYLR7 agonist max-min
CC(C)(C)c1cc(C(F)(F)F)c2c(N)c(C(=O)NC3CC3)sc2n1	0.6	-2.4
CCN(C(=O)NC(C)c1csc(C)n1)C1CCCCC1 (stereo not drawn)	11.8	8.4
COc1ccc(C)cc1NCCN1C(=O)CNC1=O	-1.5	-2.8

Five compounds already listed, ordered by heavy-atom count, rising.
Structure	NPYLR7 agonist	NPYLR7 agonist max-min
CSCCNC(=O)c1c(C)noc1-c1ccccc1C	28.2	11.2
COc1cccc(CN(CC(C)C)C(=O)c2nn(C)cc2Cl)c1	3.4	4.1
Cc1ccsc1[C@@H]1CCN(C(=O)c2cnc3ccccc3c2)C[C@H]1O	9.2	5.3
CCCN(CCC)C(=O)Cn1nc(CC)n2c(cc3sc(C)cc32)c1=O	7.9	9.1
COCCOC(=O)N(Cc1ccccc1)[C@@H]1C[C@@H]2CO[C@H](c3ccccc3)C[C@@H]2C1	18.0	24.3
